# supercomplex – modulators of mitochondrial supercomplex assembly, cell-based, luminescence, Hoechst nuclei count (AID 1645838); Cells, luminescence/Hoechst cell count ratio, supercomplex reporter; hits give high values; z-score at 11 µM unless noted; hit rate 5% among 2,000;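 active = mean z-score of two plates above 1.96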;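 also: control cybrid cells; higher means more mitochondrial supercomplex formation; U2OS-based cells read after two days; 0 = mean of sample wells on the plate; doses worked out from stocks diluted about 900-fold with the highest of each compound shown; many of its hits are not listed in these tables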
# supercomplex cell count – recorded beside supercomplex, whose call it bears; cell count; measured here: cell number, Hoechst nuclei count;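 nuclei per well as mean of two plates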
# Starred values were filed as active, the others as inactive; i = inactive; . = not tested or not shown. Some of the compounds tested; the hit share may differ from the screen's.
SMILES,supercomplex,supercomplex cell count
O=C(CCCCCCC(=O)Nc1ccccc1)NO,i,.
O=C(O)C1CC1C(=O)c1ccc(Cl)c(Cl)c1 (stereo unspecified),-0.23,6728
CCOC(=O)NCCCC(=O)NCCc1ccccc1,-0.14,5552
O=C(Nc1cccc(Nc2ncc(Br)c(NCCc3cnc[nH]3)n2)c1)N1CCCC1,i,.
O=C1C(Cc2ccc(O)cc2)N2C(=O)CCN(C(=O)NCc3ccccc3)C2CN1Cc1cccc2ccccc12 (stereo unspecified),-0.68,4222
C[N+](C)(C)NCCC(=O)O,-0.23,7032
COc1ccc(S(=O)(=O)N2CCCCC2)cc1C,-0.64,6992
Cc1cc(Nc2ccc(NC(=O)c3ccc(Nc4ccnc5ccccc45)cc3)cc2)nc(N)n1,i,.
CCC(C)C(NC(=O)C(C(C)CC)N(C)C(C)=O)C(=O)NC(C(=O)NC(CC(C)C)C(=O)[C@@]1(C)CO1)C(C)O (stereo partly specified),i,.
c1nc2nc(Nc3ccc(N4CCOCC4)cc3)nc(NC3CCCCC3)c2[nH]1,i,.
COC1C=CO[C@@]2(C)Oc3c(C)c(O)c4c(O)c(c(C=NN5CCN(C)CC5)c(O)c4c3C2=O)NC(=O)C(C)=CC=CC(C)C(O)C(C)C(O)C(C)[C@@H](OC(C)=O)C1C (stereo partly specified),-0.49,4861
N#CCC(C1CCCC1)n1cc(-c2ncnc3[nH]ccc23)cn1 (stereo unspecified),0.59,6474
CC(C)(C)c1cc(C(C)(C)C)c(NC(=O)c2c[nH]c3ccccc3c2=O)cc1O,0.017,3214
COCC(c1ccc(C(F)(F)F)cc1)N1CCN(C2(C)CCN(C(=O)c3c(C)ncnc3C)CC2)CC1C (stereo unspecified),0.31,5026
O=C(C=Cn1cnc(-c2cc(C(F)(F)F)cc(C(F)(F)F)c2)n1)NNc1cnccn1,i,.
CCCCn1c(-c2ccccc2)nc(-c2ccccc2)c1CN(Cc1ccc2c(c1)OCO2)Cc1ccc2c(c1)OCO2,0.48,5886
COC(=O)C(NC(=O)c1cc(-c2ccccc2)nc2ccccc12)c1ccccc1 (stereo unspecified),-0.062,6540
NCCCCN(Cc1nc2ccccc2[nH]1)C1CCCc2cccnc21 (stereo unspecified),2*,3287*
NC(=O)C(c1ccccc1)(c1ccccc1)C1CCN(CCc2ccc3c(c2)CCO3)C1 (stereo unspecified),-0.61,4446
COc1ccc(N2CCN(C(=O)c3cc4c(s3)-c3ccccc3S(=O)(=O)C4)CC2)cc1,-1.4,4531
OCC1NCC(O)C(O)C1O (stereo unspecified),0.23,4788
CC(C)NCCN(C(C)C)S(=O)(=O)c1ccc(Cl)cc1Cl,0.28,4550
CNC(=O)c1ccc(N2C(=S)N(c3ccc(C#N)c(C(F)(F)F)c3)C(=O)C2(C)C)cc1F,-0.057,5226
Cc1ccc(-c2ccc3c(c2)C=C(C(=O)Nc2ccc(C[N+](C)(C)C4CCOCC4)cc2)CCC3)cc1,0.46,4808
Cc1cc(C)cc(NC(=O)Nc2ccc(S(N)(=O)=O)cc2)c1,-0.56,5228
CC1C[C@@H]2[C@@H]3CCC4=CC(=O)C=C[C@]4(C)[C@@]3(F)C(O)C[C@]2(C)[C@@]1(O)C(=O)CO (stereo partly specified),1,5740
CCC(=O)NS(=O)(=O)c1ccc(-c2c(-c3ccccc3)noc2C)cc1,-0.23,7943
CC1(c2ccccc2)OC(C(=O)O)=CC1=O (stereo unspecified),0.36,6410
Cc1csc(Nc2cccc3ccccc23)n1,-0.55,5530
N=C(N)SCc1ccc(Cl)cc1Cl,0.69,6230
c1ccc(NCc2ccc(CNc3ccccn3)cc2)nc1,-0.42,5158
CCCc1c(OCCCOc2ccc(OCC(=O)O)cc2)ccc(C(C)=O)c1O,0.025,5762
Cc1ccc(B(O)O)cc1,0.12,7082
NC(=O)c1cnc(NCCc2ccc(O)c(Cl)c2)nc1NCc1ccccc1,i,.
CNCCC(Oc1ccccc1C)c1ccccc1 (stereo unspecified),-0.36,5070
CCC(=NO)C(C)=Cc1ccc(F)cc1,-0.57,5468

# Single entries from the results shown.
# C[N+](C)(C)NCCC(=O)O in supercomplex cell count is entered as 7032
# OCC1NCC(O)C(O)C1O (stereo unspecified) in supercomplex is entered as 0.23
# CCC(=NO)C(C)=Cc1ccc(F)cc1 in supercomplex is entered as -0.57
# COCC(c1ccc(C(F)(F)F)cc1)N1CCN(C2(C)CCN(C(=O)c3c(C)ncnc3C)CC2)CC1C (stereo unspecified) in supercomplex is entered as 0.31

# No new results follow: entries from further up.
SMILES,supercomplex,supercomplex cell count
NC(=O)c1cnc(NCCc2ccc(O)c(Cl)c2)nc1NCc1ccccc1,i,.
CNCCC(Oc1ccccc1C)c1ccccc1 (stereo unspecified),-0.36,5070
CCC(=NO)C(C)=Cc1ccc(F)cc1,-0.57,5468

# The list goes on:
SMILES,supercomplex,supercomplex cell count
FC(F)(F)c1ccc(C=Cc2nc(COc3ccc(CCCCn4ccnn4)cc3)co2)cc1,0.016,3940
COc1cc(F)c(C(C)C)cc1-c1ccc(C(F)(F)F)cc1CN1C(=O)OC(c2cc(C(F)(F)F)cc(C(F)(F)F)c2)C1C (stereo unspecified),-0.34,5974
Fc1ccc(Cl)cc1-c1nc(Nc2ccncc2)c2nccnc2n1,-0.48,5787
CC1(C)CCSc2ccc(C#Cc3ccc(C(=O)O)cn3)cc21,-0.34,7395
Cc1ccccc1N1C(=O)c2cc(S(N)(=O)=O)c(Cl)cc2NC1C (stereo unspecified),0.047,4544
CC(C)(C)c1ccc(S(=O)(=O)Nc2ccsc2C(=O)O)cc1,-0.65,6474
CN1CC(=O)N2C(c3ccc4c(c3)OCO4)c3[nH]c4ccccc4c3C[C@@H]2C1=O (stereo partly specified),0.076,5336
CC(C)OC(=O)CCCC=CCC1C(O)CC(O)C1C=CC(F)(F)COc1ccccc1 (stereo unspecified),-0.49,5572
NC1(Cc2ccc(Cl)cc2)CCN(c2ncnc3[nH]ccc23)CC1,0.13,4480
O=C1C(=Cc2cn(-c3ccccc3)nc2-c2ccc(OCc3ccc(Cl)cc3)cc2)SC(=S)N1CCS(=O)(=O)O,-0.22,4957
Cc1ccc(NC(=O)c2ccc(CN3CCN(C)CC3)cc2)cc1Nc1nccc(-c2cccnc2)n1,-0.49,4678
O=C(NC1CCN(CC(F)(F)F)CC1)c1ccc(-c2cccc(F)c2)nc1,-0.24,7336

# 7 records picked at random from those above, as already listed:
SMILES,supercomplex,supercomplex cell count
CC1(C)CCSc2ccc(C#Cc3ccc(C(=O)O)cn3)cc21,-0.34,7395
FC(F)(F)c1ccc(C=Cc2nc(COc3ccc(CCCCn4ccnn4)cc3)co2)cc1,0.016,3940
Cc1ccc(NC(=O)c2ccc(CN3CCN(C)CC3)cc2)cc1Nc1nccc(-c2cccnc2)n1,-0.49,4678
CC(C)OC(=O)CCCC=CCC1C(O)CC(O)C1C=CC(F)(F)COc1ccccc1 (stereo unspecified),-0.49,5572
Cc1ccccc1N1C(=O)c2cc(S(N)(=O)=O)c(Cl)cc2NC1C (stereo unspecified),0.047,4544
Fc1ccc(Cl)cc1-c1nc(Nc2ccncc2)c2nccnc2n1,-0.48,5787
CC(C)(C)c1ccc(S(=O)(=O)Nc2ccsc2C(=O)O)cc1,-0.65,6474

# (listing goes on)
SMILES,supercomplex,supercomplex cell count
CCN(c1cc(-c2ccc(CN3CCOCC3)cc2)cc(C(=O)NCc2c(C)cc(C)[nH]c2=O)c1C)C1CCOCC1,-0.25,6336
CC(Oc1cc(-c2cnn(C3CCNCC3)c2)cnc1N)c1c(Cl)ccc(F)c1Cl (stereo unspecified),i,.
OCC1OC(O)C(O)C(O)C1O (stereo unspecified),-0.044,4562
Oc1cc2c(cc1O)CN(C(=S)NCCc1ccc(Cl)cc1)CCC2,1.1,3206
O=C1NCCSc2c1sc1ccc(O)cc21,i,.
COc1ccc2cc(OCC3(C(=O)O)CN(C(=O)c4ccc(F)cc4)C3)ccc2c1,-0.31,6318
Cc1c(C2CCN(CCc3ccccc3)CC2)noc1-c1ccc(Cl)cc1,0.61,4490
O=S(=O)(NCCNCC=Cc1ccc(Br)cc1)c1cccc2cnccc12,-0.34,4480
CC(C)N(CCCCOCC(=O)O)c1cnc(-c2ccccc2)c(-c2ccccc2)n1,-0.75,6130
O=[N+]([O-])c1cccc2nsnc12,1.7,3998
Cc1ccsc1C(=CCCN1CCCC(C(=O)O)C1)c1sccc1C (stereo unspecified),-0.099,5983
Oc1ccc(C=NN(Cc2ccccc2)Cc2ccccc2)cc1,1.2,3598
CC(C)OC(=O)C1=CN(C(=O)c2ccc(F)c(F)c2)CC(C)(C)c2c1[nH]c1ccccc21,-0.22,4530
Cn1c(=O)[nH]c(=O)c2c1nc1n(CCCCO)c(-c3ccccc3)cn21,0.24,4278
COc1ccccc1C(=O)Nc1cccc(NC(=O)c2cccc(C)c2)c1,0.2,7278
COCCCN1CCC(NC(=O)c2cc(Cl)c(N)c3c2OCC3)CC1,-0.27,5933
O=c1[nH]cnc2c(C3NC(CO)C(O)C3O)c[nH]c12 (stereo unspecified),-0.31,6285
O=C(O)c1ccc(-c2nc(-c3cccc(C(F)(F)F)c3)cs2)cc1,0.63,6531
NS(=O)(=O)c1cc(Cl)c(Cl)c(S(N)(=O)=O)c1,0.16,5036
CC(C)NCC(O)c1ccc(O)c(O)c1 (stereo unspecified),1.2,6296
CCCCCCCCn1cc(CC(N)=O)c2cc(-c3cccc(C)c3)ccc21,-0.41,6838
CN1CCN(C(=S)SSC(=S)N2CCN(C)CC2)CC1,i,.
Cc1ccc(C(=O)Nc2cccc(C(F)(F)F)c2)cc1Nc1cncc(C(N)=O)c1,-0.83,4414
C=C(c1ccc(C(=O)O)cc1)c1cc2c(cc1C)C(C)(C)CCC2(C)C,-0.9,5886
CC#CCC(C)C(O)C=CC1C(O)C[C@@H]2CC(=CCCCC(=O)O)C[C@@H]12 (stereo partly specified),0.43,4654
CCN=C1N[C@@H]2C(O)C(O)C(CO)O[C@H]2S1 (stereo partly specified),-1.5,6382
COC1CC2CCC(C)C(O)(O2)C(=O)C(=O)N2CCCCC2C(=O)OC(C(C)CC2CCC(O)C(OC)C2)CC(=O)C(C)C=C(C)C(O)C(OC)C(=O)C(C)CC(C)C=CC=CC=C1C (stereo unspecified),1.2,2716
CCC1C(O)[C@@H]2[C@H]3CC[C@H](C(C)CCC(=O)O)[C@@]3(C)CC[C@@H]2[C@@]2(C)CCC(O)C[C@@H]12 (stereo partly specified),-0.61,5453
COc1cc(NS(C)(=O)=O)ccc1Nc1c2ccccc2nc2ccccc12,i,.
COc1ccc(Br)c(C=O)c1O,-0.6,4742
O=C(Nc1cccnc1)c1cc(-c2ccnc(F)c2)ccc1OCc1ccccc1,0.75,5334
Cc1cc(-n2cccc2)c(S(C)(=O)=O)cc1C(=O)N=C(N)N,-0.31,6164
OC(Cn1cncn1)(Cn1cncn1)c1ccc(F)cc1F,0.028,5814
CC(=O)c1cc([N+](=O)[O-])c(Sc2cccc(Cl)c2Cl)s1,1,2730
CS(=O)(=O)c1ccc(C(CC2CCCC2)C(=O)Nc2nccs2)cc1 (stereo unspecified),-0.26,6160
O=C1SC(=Cc2ccc(OCc3cccc(B(O)O)c3)cc2)C(=O)N1Cc1ccc(F)cc1,1.1,3716
CNC(=O)C(NC(=O)C(CC(C)C)C(O)C(=O)NO)C(C)(C)C (stereo unspecified),-0.5,6599
CCN(CC)CCCC(C)Nc1nc(C)cc(Nc2ccc3nc(C)cc(N)c3c2)n1 (stereo unspecified),-0.026,6281
O=c1oc(-c2ccccc2F)nc2sc3c(c12)CCCC3,-2,5096
NCC(=O)Nc1ccc(-n2nc(C(F)(F)F)cc2-c2ccc3c(ccc4ccccc43)c2)cc1,i,.
OCCOCCN1CCN(C2=Nc3ccccc3Sc3ccccc32)CC1,-0.38,5233
Nc1c(CC(=O)O)cccc1C(=O)c1ccc(Br)cc1,-0.24,7110
CCCN(CCc1cccs1)C1CCc2c(O)cccc2C1 (stereo unspecified),-0.4,5506
COc1ccc(-c2c(C)nn3c(NCCN4CCOCC4)cc(C)nc23)cc1OC,-0.79,5756
NCC1CCC(C(=O)O)CC1 (stereo unspecified),-0.23,4774
Fc1ccc(-c2c3cccc(C(F)(F)F)c3nn2Cc2ccc(F)cc2Cl)cc1,0.12,4648
O=C(NNS(=O)(=O)c1ccccc1C(F)(F)F)c1cc2cc(Cl)ccc2o1,-0.011,6848
CN1CCN(CC(=O)N2c3ccccc3C(=O)Nc3cccnc32)CC1,0.11,6260
CCN(CC)CCCCNc1ncc2c(n1)N(C)C(=O)N(c1c(Cl)c(OC)cc(OC)c1Cl)C2,-0.047,4070
NC(=O)c1ccc2nc(-c3ccc(Oc4ccc(Cl)cc4)cc3)[nH]c2c1,2*,3839*
O=c1cc(-c2ccccc2)oc2cccc(O)c12,-0.34,4924
O=C1CCc2ccc(OCCCCN3CCN(c4cccc(Cl)c4Cl)CC3)cc2N1,-0.73,4728
c1ccc2nc(-c3ccc4ccccc4n3)ccc2c1,-0.097,4754
COc1ccc(C2(O)CCC(N3CCC(NC(=O)CNC(=O)c4cccc(C(F)(F)F)c4)C3)CC2)cn1 (stereo unspecified),-0.12,5356
NC(=O)C1CSSCCC(=O)NC(CCCCN=C(N)N)C(=O)NCC(=O)NC(CC(=O)O)C(=O)NC(Cc2c[nH]c3ccccc23)C(=O)N2CCCC2C(=O)N1 (stereo unspecified),-0.048,5819
COc1cccc(OC)c1-c1cc(C(=O)NC2(C(=O)O)C3CC4CC(C3)CC2C4)nn1-c1ccc(C(=O)N(C)CCCN(C)C)cc1C(C)C (stereo unspecified),-0.89,6454
CC1(C)CCC(C)(C)c2cc(NC(=O)c3ccc(C(=O)O)cc3)ccc21,-0.4,5902
C1CCc2nnc(C34CC5CC(CC(C5)C3)C4)n2CC1,-0.39,5252
O=[N+]([O-])c1ccc(Nc2ccccc2-c2ccccc2)c2nonc12,-0.55,6192
C#CCOc1ccc2c(c1)c(-c1ccc(C(C)C)cc1)nc(=O)n2C(C)C,-0.14,7402
Cc1cccc2c1N(CC(=O)OC(C)C)C(=O)C2=O,0.46,4917
CCCCCCCCCCCCCCC(=O)NCCO,0.29,6624
S=C(NCCCc1cnc[nH]1)NCCCN(Cc1ccc(Cl)c(Cl)c1)c1ccc(Br)cn1,i,.

# Source: PubChem BioAssay
